# Source: PubChem BioAssay (National Center for Advancing Translational Sciences (NCATS))
# D2 ag: Beta-Arrestin HTS for Positive Allosteric Modulators of the Human D2 Dopamine Receptor: Agonists | D(2) dopamine receptor (Homo sapiens), P14416 | DiscoveRx PathHunter D2 beta-arrestin, luminescence, 90 min; 100% = 57 uM dopamine signal | actives 0.084% (n = 360,000) | AID 624465, 2012 | activation, % (test concentration not listed); in the data active = activation above about 40%; inconclusive = about 15% to 40%; inactive = below about 15%; note: compound concentration not given in the record; the text of the record calls up to 30% inactive
#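 DiscoveRx PathHunter D2 beta-arrestin cells (2,100/well) attached overnight, then compound-stimulated 90 min at 37 C in HBSS/10 mM HEPES/0.1% Tween-20 buffer; beta-galactosidase complementation read by luminescence after 1 h at ambient temperature. Dopamine 57 uM final (EC100) as control.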
# Six1-Eya2 blk: qHTS Assay for Inhibitors of the Six1/Eya2 Interaction | Homeobox protein SIX1 (Homo sapiens) + Protein phosphatase EYA2 (Homo sapiens), … | AlphaScreen GST-Six1/His-Eya2 binding, biochemical; hits give low values; control for the full effect not named in the record | activity change, % (concentration not given with the values) | actives 0.56% (n = 360,000); in the data active = activity change below about -65%; inconclusive = about -30% to -65%; inactive = above about -30%; note: % is set by controls: 0 for no effect and ±100 for the full control effect
# Target sequence (O00167 whole entry, looked up): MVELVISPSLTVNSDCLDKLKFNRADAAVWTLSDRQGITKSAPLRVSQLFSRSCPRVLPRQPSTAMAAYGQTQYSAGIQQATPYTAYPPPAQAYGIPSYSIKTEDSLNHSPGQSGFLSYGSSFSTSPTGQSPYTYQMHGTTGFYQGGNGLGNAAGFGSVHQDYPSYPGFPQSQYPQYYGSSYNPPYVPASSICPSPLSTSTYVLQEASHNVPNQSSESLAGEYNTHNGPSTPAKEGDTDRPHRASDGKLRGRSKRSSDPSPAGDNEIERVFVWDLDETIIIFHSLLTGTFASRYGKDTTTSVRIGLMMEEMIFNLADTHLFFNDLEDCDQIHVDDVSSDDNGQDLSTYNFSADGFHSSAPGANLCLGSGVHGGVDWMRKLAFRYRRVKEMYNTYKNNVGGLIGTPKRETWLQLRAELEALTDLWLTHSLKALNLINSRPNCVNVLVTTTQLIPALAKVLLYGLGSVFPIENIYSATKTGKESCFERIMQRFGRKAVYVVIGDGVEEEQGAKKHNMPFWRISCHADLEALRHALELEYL
# Target sequence (Q15475 whole entry, looked up): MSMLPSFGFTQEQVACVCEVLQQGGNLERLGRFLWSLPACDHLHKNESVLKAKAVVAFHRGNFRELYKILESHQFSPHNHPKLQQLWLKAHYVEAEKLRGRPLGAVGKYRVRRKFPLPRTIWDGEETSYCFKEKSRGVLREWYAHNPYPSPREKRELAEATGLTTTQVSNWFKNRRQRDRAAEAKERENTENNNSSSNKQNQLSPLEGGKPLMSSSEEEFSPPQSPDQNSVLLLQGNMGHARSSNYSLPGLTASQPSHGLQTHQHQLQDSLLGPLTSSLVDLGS
#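 Six1/Eya2 binding was read as AlphaScreen signal after compounds were pinned into GST-Six1 plus His-tagged Eya2 (5X stock 250/500 nM) in pH 8.0 Tris/NaCl/TCEP buffer, beads added, then incubated 1 h, 37 C, dark.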
# TRPV1 potentiator: HTS Assay for Compounds that Act as Potentiators of the Vanilloid Receptor 1; Transient receptor potential cation channel subfamily V member 1 (Homo sapiens), Q8NER1; TRPV1-expressing cells, Fluo-8 calcium influx, capsaicin EC20 potentiation; host cell line not named in the record; control for the full effect not named in the record; potentiation, % at 8.33 µM; actives 0.02% (n = 320,000); active means potentiation above 80%; inconclusive means 30% to 80%; inactive means below 30%; note: 0% is about no effect
#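 TRPV1-expressing cells were cultured overnight at 35.5C and loaded with Fluo-8 calcium dye for 40 to 90 min at room temperature. After a 10 s baseline, compound was added and calcium influx was read kinetically for 3 min (ex 480/em 520 nm).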
# Sfp PPTase inh: qHTS Assay for Inhibitors of Bacillus subtilis Sfp phosphopantetheinyl transferase (PPTase); actives 3.5% (n = 310,000); Biochemical Sfp PPTase activity, qHTS; 4'-phosphopantetheinyl transferase ffp (Bacillus subtilis), Q9F4F7; AID 1490, 2009; Potency, µM, without a hit: max response, negative = inhibition, usual class: inhibitors; active = well fitted inhibition curve with a large enough effect; inconclusive = small, poorly fitted or top-dose-only effect, or another doubt; inactive = no such curve, though single readings can be large or run the other way;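 note: the enzyme is Sfp with the accession as filed and its product quenches rhodamine fluorescence; potency is the fitted concentration of half-maximal effect; 0% = enzyme reaction without inhibitor and -100% = no enzyme wells; top concentration of the series not given in the record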
#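 Fluorescence-quenching assay: 15 nM Sfp-PPTase preincubated 15 min at room temperature with compound, then 5 uM rhodamine-CoA and 12.5 uM BHQ-2-labelled YbbR peptide added. Fluorescence (ex 525/em 598 nm) read at start and after 30 min; difference gives rate.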
# PINK1 modulator: A Quantitative High throughput Screen to Identify Chemical Modulators of PINK1 Expression; Potency, µM (top dose mostly 76.6 µM), for the others: at the highest dose activation (PINK1 increase), most hits filed as activators; PINK1 immunofluorescence, high-content cytometry, 24 h; actives 0.2% (n = 410,000); active = well fitted activation curve with a large enough effect; inconclusive = small, poorly fitted or top-dose-only effect; inactive = flat fitted curve, though single readings scatter; cell line not stated here;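 note: potency is the fitted concentration of half-maximal effect; % of control where 0% means no effect; nearly all actives have a fitted effect of over 65% in size; a mitochondrial uncoupler was the plate control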
#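 Measures PINK1 amount and localization on or inside mitochondria by immunofluorescence. Stable cells get compounds at 5 concentrations for 24 hours before fixation and staining; CCCP controls included.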
# D2 potentiator: Beta-Arrestin HTS for Positive Allosteric Modulators of the Human D2 Dopamine Receptor: Potentiators; D(2) dopamine receptor (Homo sapiens), P14416; DiscoveRx D2 beta-arrestin cells, luminescence, 90 min; 100% = 57 uM dopamine signal; potentiation, % (no concentration beside the values); actives 0.23% (n = 360,000); AID 624464, 2012; active = potentiation of 50% or more; inconclusive = 30% to 50%; inactive = 30% or less;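 note: compound concentration not given in the record; tested on top of an EC20 dose of dopamine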
#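 PathHunter beta-arrestin assay in DiscoveRx D2 cells. Compounds were added with an EC20 of dopamine (50 nM final) for 90 min at 37 deg C. Luminescence was read 1 h after detection reagent, with 57 uM dopamine as the EC100 control.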
# CtBP-E1A inh: qHTS Assay for Inhibitors of the CtBP/E1A Interaction. AlphaScreen GST-E1A/His-CtBP binding, 1536-well; hits give low values; control for the full effect not named in the record. activity change, % (no concentration beside the values). actives 0.49% (n = 340,000). AID 651724, 2012; in the data active means activity change below about -65%; inconclusive means about -30% to -65%; inactive means above about -30%; note: % is set by controls: 0 for no effect and ±100 for the full control effect; compound concentration not given in the record
#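 In 5 uL wells, 23 nL compound meets equimolar GST-E1A and His-CtBP (5X stock 125 nM each) for 2 h, 37 °C. Beads (5X, 50 ug/mL) then 1 h, 37 °C, dark.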
# The depositor's hits bear a star; ? = inconclusive; . = no result given; & = joins results of further samples.
SMILES,D2 ag,Six1-Eya2 blk,TRPV1 potentiator,Sfp PPTase inh,PINK1 modulator,D2 potentiator,CtBP-E1A inh
COc1ccc(-c2csc(N3CCN(c4cc5c(cc4Cl)nc(-c4ccncc4)n5CCOCCO)CC3)n2)cc1,0.4,17,0,45µM*,3.4%,0,.
CO/N=C(\C(=O)O)c1csc(NN=C(C)C)n1,3.0,-21,-6,35µM*,-0.3%,-11,-13
Cc1ccc(OCCSc2nc3ccccc3n2CCC(=O)O)c(C(C)C)c1,-0.4,?,.,.,0.7%,-13,13
CCc1ccc2cc(F)cc(F)c2n1,-2.5,7,.,.,0.6%,0,8
COC(=O)[C@@]12CCCCN1[C@H](c1ccc(-c3ccccc3)cc1)[C@H]1C(=O)N(C)C(=O)[C@H]12,-0.9,-1,22,.,2.5%,-6,.
C[C@H](OC(=O)N1CCN(C(c2ccccc2)c2ccccc2)CC1)[C@@H]1O[C@@]2(C)CCC[C@H]1O2,-2.2,-5,4,.,3.1%,-1,0
Cc1ccc(C(=O)N2CCN(c3ncc(C(F)(F)F)cc3Cl)CC2)s1,3.1,25,0,11%,-1.5%,-7,-4
CCCc1nc2sc3c(c2c(=O)n1NC(=O)c1ccco1)CC(C)(C)OC3,-0.5,1,-3,4%,-0.3%,-7,-11
CCC(=O)Nc1cc2[nH]c(=O)cc(C)c2cc1C,-4.0,2,-17,7%,1.3%,-4,7
Cc1[nH]nc(SCC(=O)N2CCCC2)c1[N+](=O)[O-],-19,6,-4,-5%,1.5%,-11,.
COC(=O)c1nn(-c2ccc(-c3ccccc3)cc2)cc1O,-1.6,-3,-5,1%,-2.0%,6,0
O=C(COC(=O)c1ccc(Cl)nc1)Nc1ccc(N2CCCCC2)cc1,-1.5,-11,.,.,2.0%,-2,6
COc1ccc(S(=O)(=O)N2CCCC(C(=O)N3CCOCC3)C2)cc1Cl (stereo not drawn),-2.1,-16,-31,6%,2.9%,-12,-19
O=C(OCC(=O)N1CCc2ccccc21)c1cncc(Br)c1,-0.8,-1,10,-11%,-1.3%,-4,4
COc1cc([N+](=O)[O-])cc2cc(C(=O)N3CCN=C3c3ccccc3)c(=O)oc12,-2.9,3,15,8%,0.0%,-12,.
COCC(C)NS(=O)(=O)c1ccc(C(=O)NC(Cc2ccccc2)c2ccccc2)cc1 (stereo not drawn),-5.0,-12,11,16%,-1.3%,-21,-19
Nc1cccc(C(=O)N/N=C/c2ccsc2)c1,-2.5,-25,?,-12%,1.0%,-21,-6
CC1(C(=O)Nc2ccc3c(c2)OCO3)CCN1C(=O)Cc1cccs1 (stereo not drawn),-1.9,-22,.,.,0.6%,-10,-13
CCOc1cccc2cc(C(=O)OCC(=O)Nc3c(C)cccc3CC)c(=O)oc12,-3.0,-3,-5,.,11%,-12,8
CC(=O)c1ccc(Nc2nc(C)cc(C)n2)cc1,-7.0,10,-4,13%,2.7%,-1,-3
Cc1cccc(C)c1NC(=O)CNCC(=O)Nc1c(C)cccc1C,2.2,-3,3,18%,-0.4%,-2,10
COc1cccc2oc3ccc(C#CC4(N)CCCCC4)cc3c(=O)c12,-0.6,-10,-4,-23%,-1.1%,-7,-6
O=[N+]([O-])c1ccc(Cl)c(-c2ccc(/C=N/c3c(-c4ccco4)nc4ccccn34)o2)c1,-0.1,-21,.,-19%,-1.4%,11,?
O=C(NCC1CCCO1)c1ccccc1 (stereo not drawn),-1.8,10,14,-4%,-2.3%,-6,-2
CC(Oc1ccc(-c2ccccc2)c(F)c1)c1ccn(S(=O)(=O)c2cccc3ccccc23)n1 (stereo not drawn),3.1,3,11,8%,1.8%,-13,-1

# Later entries:
SMILES,D2 ag,Six1-Eya2 blk,TRPV1 potentiator,Sfp PPTase inh,PINK1 modulator,D2 potentiator,CtBP-E1A inh
COCCN(C(=O)c1c(C)noc1C)c1c(N)n(CC(C)C)c(=O)[nH]c1=O,-2.1,8,2,.,-0.4%,-11,-21
COc1ccc(CN2CCCC(CO)(Cc3ccc(F)cc3)C2)c(OC)c1OC (stereo not drawn),-3.9,21,-13,28%,-0.1%,1,0
Cc1cc(C)nc(SCc2nnc(SCC(=O)Nc3ncc(C)s3)n2Cc2ccco2)n1,0.0,-8,28,-3%,-0.7%,-10,-15
N#Cc1ccsc1NC(=O)COC(=O)c1ccc(NC(N)=O)cc1,2.0,-5,10,11%,2.0%,-1,-12
CN1CCN(CCC(=O)Nc2ccccc2)CC1,-2.5,2,1,9%,0.3%,-13,5
Cc1occc1-c1nnc(SCCCC(=O)c2ccc(F)cc2)n1C,-1.5,6,1,50µM*,2.5%,-13,-3
COc1ccc(C(=O)OC(C)CN2CCOCC2)cc1OC (stereo not drawn),-3.9,12,10,4%,-2.3%,-6,1
CCOc1c(C)cnc2c1c(=O)n(Cc1ccccc1Cl)c(=O)n2C,-0.9,16,-2,-9%,1.1%,-2,11
OC[C@@H]1CN(Cc2ccc(-c3ccccc3)cc2)C[C@H](n2cnc3c(N4CCOCC4)ncnc32)O1,7.8,-15,.,.,2.9%,5,-5
OC(CN1CCCCCC1)CN(c1ccccc1)c1ccccc1 (stereo not drawn),-1.6,-7,-2,-5%,0.0%,-4,-14
CC1(C(=O)NS(=O)(=O)c2ccccc2)CCN1C(=O)c1ccccc1 (stereo not drawn),-3.1,7,.,.,1.0%,-9,-23
COc1cccc(C2c3[nH]c4ccccc4c3C[C@H]3C(=O)N(c4ccccc4C(=O)N4CCC[C@H]4C(=O)O)C(=O)N23)c1 (stereo partly drawn),-2.5,-1,-5,4%,0.3%,-13,-4
Cc1ccc(Nc2ncnc(-n3cccc3)n2)cc1Cl,-0.2,1,16,18%,0.6%,3,.
CCC(=O)Nc1ccc2nc3c(=O)[nH]c(=S)[nH]c3nc2c1,2.2,?,-6,-20%,1.8%,-20,?
CC(NC(=O)C(=O)NCCc1c[nH]c2ccccc12)c1ccccc1 (stereo not drawn),1.2,-1,-15,10%,-0.3%,-4,4
COC(=O)C1=C(C)N(c2ccccc2)C(=S)NC1c1ccccc1C(F)(F)F (stereo not drawn),-27,-24,-15,12%,2.9%,-14,.
COc1ccc(OC)c(NC(=O)/C=C/c2ccccc2[N+](=O)[O-])c1,1.3,-24,-9,-4%,0.3%,-11,-8
CCOC(=O)c1ccc(Nc2nc(-c3cccnc3)nc3ccccc23)cc1,-1.8,-18,-17,2%,-2.2%,6,-26
COCc1ccccc1Cn1cnc2c1c(=O)n(C)c(=O)n2C,-0.6,1,9,10%,-0.6%,17,0
CCc1ccc(NC(=O)Cn2c(=O)n(CCCC(=O)NCc3ccco3)c(=O)c3ccccc32)cc1,-0.9,1,?,19%,23%,-4,0
CC1(C)Cc2c(cnn2-c2ccc(F)cc2)C(NC(=O)CCN2CCCCC2=O)C1 (stereo not drawn),-5.7,4,19,3%,6.5%,-17,2
COc1cc(C(=O)Nc2ccc(C(C)=O)cc2)c(Br)c(OC)c1OC,0.3,2,-18,4%,2.6%,-2,-4
CCCn1c(-c2cccc(F)c2)nc2c1c(=O)[nH]c(=O)n2Cc1ccccc1,-2.7,2,-3,5%,0.0%,-5,-3
CCOC(=O)c1ccc(NCC(O)COc2ccccc2)cc1 (stereo not drawn),-0.9,-11,6,6%,15%,14,0
COc1ccc(C2C(C(=O)c3ccco3)=C(O)C(=O)N2CCc2ccccc2)cc1OC (stereo not drawn),-0.8,2,8,-6%,-0.4%,-9,0

# New compounds follow
SMILES,D2 ag,Six1-Eya2 blk,TRPV1 potentiator,Sfp PPTase inh,PINK1 modulator,D2 potentiator,CtBP-E1A inh
O=C(NN1C(=O)c2ccc3c4c(ccc(c24)C1=O)CC3)c1ccc(Br)cc1,-1.0,5,-12,-1%,5.6%,-4,-8
COc1ccc(OC)c(CNC(=O)CCc2nc(-c3cccs3)no2)c1,-5.8,2,15,11%,-1.0%,-1,2
COc1ccc(C(=O)N2CCN(CC(=O)N3CCOCC3)CC2)cc1,-5.0,22,6,5%&18%,1.5%,-1,-22
O=C(NC1CC1)C1CCN(C2CCN(C(=O)c3c(F)cccc3Cl)CC2)CC1,-5.5,8,8,8%,-0.6%,-12,-4
COc1ccc(CCNC(=O)c2n[nH]c3ccccc23)cc1,1.9,1,-11,3%,1.2%,1,8
Cc1ccc(S(=O)(=O)N2CCOC2CNC(=O)C(=O)NCCCN2CCOCC2)cc1 (stereo not drawn),0.7,3,-4,22%,2.6%,-2,-1

# Part of the list above in order of count of non-hydrogen atoms, lowest first.
SMILES,D2 ag,Six1-Eya2 blk,TRPV1 potentiator,Sfp PPTase inh,PINK1 modulator,D2 potentiator,CtBP-E1A inh
CCC(=O)Nc1cc2[nH]c(=O)cc(C)c2cc1C,-4.0,2,-17,7%,1.3%,-4,7
CCOC(=O)c1ccc(NCC(O)COc2ccccc2)cc1 (stereo not drawn),-0.9,-11,6,6%,15%,14,0
N#Cc1ccsc1NC(=O)COC(=O)c1ccc(NC(N)=O)cc1,2.0,-5,10,11%,2.0%,-1,-12
Cc1ccc(C(=O)N2CCN(c3ncc(C(F)(F)F)cc3Cl)CC2)s1,3.1,25,0,11%,-1.5%,-7,-4
COc1ccc(OC)c(CNC(=O)CCc2nc(-c3cccs3)no2)c1,-5.8,2,15,11%,-1.0%,-1,2
CCCc1nc2sc3c(c2c(=O)n1NC(=O)c1ccco1)CC(C)(C)OC3,-0.5,1,-3,4%,-0.3%,-7,-11
Cc1ccc(OCCSc2nc3ccccc3n2CCC(=O)O)c(C(C)C)c1,-0.4,?,.,.,0.7%,-13,13
COc1ccc(CN2CCCC(CO)(Cc3ccc(F)cc3)C2)c(OC)c1OC (stereo not drawn),-3.9,21,-13,28%,-0.1%,1,0
CC1(C)Cc2c(cnn2-c2ccc(F)cc2)C(NC(=O)CCN2CCCCC2=O)C1 (stereo not drawn),-5.7,4,19,3%,6.5%,-17,2
